# Screening results as filed in PubChem.
# gsp antagonist: antagonizes gsp, the McCune-Albright syndrome mutation. gsp-mutant cells, cAMP HTRF, 30 min; control for the full effect not named in the record. 0.4% of 340,000 active. AID 624288. Potency, µM (top dose mostly 76.9 µM), inactives show at the top dose activity change, negative = inhibition, most hits filed as inhibitors; active = falling curve of any shape with a large fitted effect; inconclusive = falling curve, mostly with a smaller effect; inactive = flat or rising curve; cell line not stated here;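 also: intracellular cAMP measured with PDE inhibitor Ro 20-1724 present during compound exposure; potency is read from the fitted curve at half-maximal effect; % is scaled to controls: 0 for no effect and ±100 for the full control effect; nearly all actives have a fitted effect of over 65% in size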
#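 Measurement of cellular cAMP by homogeneous time-resolved fluorescence following a 30 min compound exposure at 37C. The PDE inhibitor […] was present throughout; the assay buffer was DPBS with 0.05% BSA and 0.005% Tween 20.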
# D2 PAM: positive allosteric modulators of human D2 dopamine receptor. P14416. DiscoveRx D2 beta-arrestin cells, luminescence, 90 min; 100% = 57 uM dopamine signal. potentiation, % (concentration not given with the values). 0.23% of 360,000 active. AID 624464; active = potentiation of 50% or more; inconclusive = 30% to 50%; inactive = 30% or less;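 also: compound concentration not given in the record; tested on top of an EC20 dose of dopamine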
#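 PathHunter beta-arrestin assay in DiscoveRx D2 cells. Compounds were added with an EC20 of dopamine (50 nM final) for 90 min at 37 deg C. Luminescence was read 1 h after detection reagent, with 57 uM dopamine as the EC100 control.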
# gsp ag: gsp mutant agonism; Potency, µM (series often up to 76.9 µM), for the others: at the highest dose activation (cAMP increase), usual class: activators; gsp mutant cells, cAMP HTRF, 30 min; control for the full effect not named in the record; AID 624287; 0.13% of 340,000 active; active = well fitted activation curve with a large enough effect; inconclusive = small, poorly fitted or top-dose-only effect, or another doubt; inactive = no such curve, though single readings can be large or run the other way; cell line not stated here;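 also: phosphodiesterase inhibitor Ro 20-1724 added with compounds to block cAMP breakdown; potency is read from the fitted curve at half-maximal effect; nearly all actives have a fitted effect of over 60% in size; about a fifth of the inactives were tested at one dose only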
#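 Cells stably selected in G418 were plated at 2000/well, grown 16-24 hr, then given compounds in DMSO with the PDE inhibitor […] (300 uM solution added) for 30 min at 37C; cAMP was read by HTRF.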
# Six1-Eya2 inh: Six1/Eya2 interaction inhibition; Q15475+O00167; AlphaScreen GST-Six1/His-Eya2 binding, biochemical; active compounds read low; control for the full effect not named in the record; activity change, % (test concentration not listed); 0.56% of 360,000 active; in the data active = activity change below about -65%; inconclusive = about -30% to -65%; inactive = above about -30%; also: % is scaled to controls: 0 for no effect and ±100 for the full control effect
# Target sequence (O00167 whole entry, looked up): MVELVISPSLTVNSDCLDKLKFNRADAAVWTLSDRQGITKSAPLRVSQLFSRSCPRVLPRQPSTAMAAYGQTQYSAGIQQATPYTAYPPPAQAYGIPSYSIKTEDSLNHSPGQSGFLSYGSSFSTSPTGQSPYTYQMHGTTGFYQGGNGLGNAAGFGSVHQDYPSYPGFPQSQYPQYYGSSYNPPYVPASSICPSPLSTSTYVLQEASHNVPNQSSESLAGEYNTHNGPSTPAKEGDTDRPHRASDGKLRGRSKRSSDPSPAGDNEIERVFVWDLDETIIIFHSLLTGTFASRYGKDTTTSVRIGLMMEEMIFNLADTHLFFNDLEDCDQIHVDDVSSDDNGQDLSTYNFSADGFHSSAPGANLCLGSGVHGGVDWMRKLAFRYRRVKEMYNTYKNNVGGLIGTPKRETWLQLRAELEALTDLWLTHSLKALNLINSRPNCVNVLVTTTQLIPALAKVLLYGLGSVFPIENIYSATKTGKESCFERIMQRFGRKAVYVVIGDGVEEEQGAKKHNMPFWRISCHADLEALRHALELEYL
# Target sequence (Q15475 whole entry, looked up): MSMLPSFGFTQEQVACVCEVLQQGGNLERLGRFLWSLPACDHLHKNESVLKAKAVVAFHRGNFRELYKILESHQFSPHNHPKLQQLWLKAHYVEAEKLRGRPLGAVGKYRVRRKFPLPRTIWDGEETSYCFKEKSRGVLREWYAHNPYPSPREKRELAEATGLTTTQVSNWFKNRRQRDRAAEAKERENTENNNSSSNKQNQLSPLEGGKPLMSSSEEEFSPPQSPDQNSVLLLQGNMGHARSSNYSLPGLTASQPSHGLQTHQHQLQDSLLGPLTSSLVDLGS
#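 AlphaScreen with GST-Six1 and His-Eya2 (5X mix: 250 nM and 500 nM), glutathione donor and nickel acceptor beads; buffer 50 mM Tris pH 8.0, 300 mM NaCl, 1 mM TCEP; 1 h at 37 C in the dark.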
# D2 ag: activates the human D2 dopamine receptor | AID 624465 | P14416 | activation, % (concentration not given with the values) | 0.084% of 360,000 active | DiscoveRx PathHunter D2 beta-arrestin, luminescence, 90 min; 100% = 57 uM dopamine signal; in the data active = activation above about 40%; inconclusive = about 15% to 40%; inactive = below about 15%; also: compound concentration not given in the record; the text of the record calls up to 30% inactive
#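 Agonist mode: compounds alone added to overnight-plated D2 PathHunter cells for 90 min at 37 C, with 57 uM final dopamine (EC100) defining full response. Beta-arrestin recruitment detected by chemiluminescent reagent, read after 1 h at ambient temperature.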
# CtBP-E1A blk: inhibitors of CtBP/E1A interaction | AlphaScreen GST-E1A/His-CtBP binding, 1536-well; active compounds read low; control for the full effect not named in the record | activity change, % (test concentration not listed) | 0.49% of 340,000 active | AID 651724; in the data active means activity change below about -65%; inconclusive means about -30% to -65%; inactive means above about -30%; also: % is scaled to controls: 0 for no effect and ±100 for the full control effect
#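 GST-E1A and His-tagged CtBP (125 nM each as 5X stock) were preincubated with pin-transferred compound for 2 h at 37 °C in the dark, then glutathione donor and nickel acceptor beads were added for 1 h before AlphaScreen reading.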
# Starred values were filed as active, the others as inactive; ? = inconclusive; . = not tested or not shown; [ ] = dose if it differs, or a comment.
gsp antagonist,D2 PAM,gsp ag,Six1-Eya2 inh,D2 ag,CtBP-E1A blk,structure
3%,-2,1%,4,0.4,5,CCN(C(=O)CSc1ccc2ccccc2c1)C1CCS(=O)(=O)C1 (configuration not stated)
-6%,6,-18%[15.4 µM],3,-0.6,-1,CN(CC(=O)Nc1ccccc1Br)c1ncnc2sccc12
11%,11,-16%,18,2.0,0,CC1CN(C(=O)N2CCCCC2)CCN1C(=O)N1CCCCC1 (configuration not stated)
-16%,-10,-7%[15.4 µM],-2,-2.0,-15,COc1ccc(C(C(=O)NCC2CCCO2)N(C(=O)c2snc(C(N)=O)c2N)c2ccc(C)cc2)cc1OC (configuration not stated)
-7%,-8,2.8µM*,-5,-0.8,.,Cc1ccc(C(=O)C2=C(O)C(=O)N(c3ncccn3)C2c2ccccc2F)o1 (configuration not stated)
10%,-7,.,1,-2.1,-2,COCCCNC(=O)CC1C[C@H](C(=O)N(C(C)C)C(C)C)[C@@]2(C)c3[nH]c4ccccc4c3CCN2C1=O (some centres not stated)
-9%,-5,-1%,0,0.2,0,O=C(Nc1ccc2c(c1)C(=O)N(c1ccccc1)C2=O)C1CCCO1 (configuration not stated)
8%,0,24%,0,-0.7,-2,COc1ccc(-c2ccc(-c3nnn(CC(C)=O)n3)cc2)cc1
-3%,3,?,11,-1.7,5,COc1ccccc1N=C1SC(C(=O)Nc2ccc(F)cc2)CC(=O)N1C (configuration not stated)
-5%,-1,?,-1,-2.4,2,O=C(NC1CCC(O)CC1)c1cc(-c2ccc(Cl)cc2)nc2ccccc12 (configuration not stated)
.,7,1%,7,2.0,-12,CC(=O)N1CC2(CC(c3ccc(Cl)cc3Cl)=NO2)CN1c1cccc(Cl)c1 (configuration not stated)
1%,5,2%,14,0.4,18,CCCNC(=O)NC(=O)CSc1ccc(C)cc1C
-12%,-2,24%,8,-1.9,1,COc1ccc(OCCC(=O)Nc2cc3c(cc2C(=O)O)OCCCO3)cc1
?,-6,?,-3,2.3,-3,COc1ccc(/C=N/NC(=O)c2ccoc2C)cc1COc1ccc(Cl)cc1
15%,0,-31%[inhibitor],2,-2.5,-1,CCOC(=O)CC1C(=O)NCCN1Cc1cccs1 (configuration not stated)
-16%,-4,12%,-3,1.2,-14,Cc1ccc(C2CC(c3cccs3)=NN2C(=O)c2ccco2)o1 (configuration not stated)
-1%,5,-60%[inhibitor],5,0.1,2,O=C(O)C1CCCN(S(=O)(=O)c2cccs2)C1 (configuration not stated)
10%,-4,.,-1,-6.2,-8,CCN1C(=O)[C@@H]2[C@@H](c3ccc(-c4ccc(Cl)c(Cl)c4)cc3)N3CCCC[C@@]3(C(=O)OC)[C@@H]2C1=O
14%,1,18%,1,3.8,8,Cc1ccc(/C=C/C(=O)OCC(=O)NC(C)c2ccccc2)o1 (configuration not stated)
?,-9,?,-3,-2.7,-4,CC(C)COC(=O)C(C)Nc1n[nH]c(=S)[nH]c1=O (configuration not stated)
2%,-2,23%[15.4 µM],11,-4.3,6,Cc1onc(-c2ccccc2Cl)c1C(=O)N1CCN(C)CC1
6%,7,-3%,0,0.4,5,CCC(C)Sc1nc2ccccc2c(=O)[nH]1 (configuration not stated)
.,-9,.,5,-5.4,-1,CC1(C(=O)NS(=O)(=O)c2ccc(F)cc2F)CCN1C(=O)CCc1ccccc1 (configuration not stated)
4%,-4,-2%[15.4 µM],-1,-4.2,-2,Cc1ccc(SCC(=O)NNC(=O)c2cncc(Br)c2)cc1
11%,-8,-6%[15.4 µM],-10,3.5,14,O=C(Nc1cc(F)cc(F)c1)c1ccc(NCCc2ccccc2)c([N+](=O)[O-])c1
-5%,-15,8%,0,-2.6,0,CCOC(=O)CSc1nncc2ccc(OC)c(OC)c12
?,4,-12%[15.4 µM],0,0.6,-2,N#CCn1c2ccccc2c2nc3ccccc3nc21
14%,-3,-7%,-13,-1.7,-29,COc1ccc(CCNC(=O)c2cc3c(=O)n4ccccc4nc3n(CCCN3CCOCC3)c2=N)cc1OC
6%,-4,?,4,-4.5,1,CCCCOC(=O)CNc1n[nH]c(=S)[nH]c1=O
9%,-8,-19%,3,0.3,5,Cc1ccc(CNC(=O)C2CC(=O)N(c3ccc(OCC(=O)N4CCCC4)cc3)C2)cc1 (configuration not stated)
0%,10,-15%[15.4 µM],-4,0.2,0,CCCN(CC(=O)Nc1ccccc1OC)C(=O)c1cccc(S(=O)(=O)Nc2ccc(OC)cc2)c1
-5%,-8,3%[15.4 µM],?,-2.6,-2,COc1cc(/C=N/NC(=S)Nc2cccc(S(=O)(=O)N(C)C)c2)ccc1O

# Reformatted with tabs: 6 of the compounds above
SMILES	gsp antagonist	D2 PAM	gsp ag	Six1-Eya2 inh	D2 ag	CtBP-E1A blk
N#CCn1c2ccccc2c2nc3ccccc3nc21	?	4	-12%[15.4 µM]	0	0.6	-2
COc1ccc(CCNC(=O)c2cc3c(=O)n4ccccc4nc3n(CCCN3CCOCC3)c2=N)cc1OC	14%	-3	-7%	-13	-1.7	-29
CCCCOC(=O)CNc1n[nH]c(=S)[nH]c1=O	6%	-4	?	4	-4.5	1
Cc1ccc(CNC(=O)C2CC(=O)N(c3ccc(OCC(=O)N4CCCC4)cc3)C2)cc1 (configuration not stated)	9%	-8	-19%	3	0.3	5
CCCN(CC(=O)Nc1ccccc1OC)C(=O)c1cccc(S(=O)(=O)Nc2ccc(OC)cc2)c1	0%	10	-15%[15.4 µM]	-4	0.2	0
COc1cc(/C=N/NC(=S)Nc2cccc(S(=O)(=O)N(C)C)c2)ccc1O	-5%	-8	3%[15.4 µM]	?	-2.6	-2

# (continued)
gsp antagonist,D2 PAM,gsp ag,Six1-Eya2 inh,D2 ag,CtBP-E1A blk,structure
-33%,-4,8%,-2,0.3,6,Cc1cccc(-n2c(-c3csc(C)c3)n[nH]c2=S)c1
3%,-6,?,4,-4.0,2,Cn1c(=O)c2c(SCC(=O)N3CCOCC3)nc(C3CC3)nc2n(C)c1=O
7%,-10,12%,-1,-8.5,.,Cc1ccc(NC(=S)Nn2cnnc2)cc1
-2%,-28,1%,-5,-2.1,.,O=[N+]([O-])c1ccccc1S(=O)(=O)N1CCN(Cc2ccccc2)CC1
-5%,6,-20%,13,-3.5,7,CCOc1ccc(NC(=O)C2CC(C)=C(C)CC2C(=O)O)cc1 (configuration not stated)
-5%,-7,0%,3,8.8,.,COc1ccc(/C=C/C(=O)OCC(=O)Nc2ccc(N3CCOCC3)cc2)cc1
13%,6,1%,29,-0.4,42,COc1cc(NC(=O)CSc2ncccc2C(=O)OC(C)C)cc(OC)c1
6%,-17,?,-6,-3.2,-11,C#CCOCCOCCOCCNc1nc(N2CCN(C(=O)C([C@@H](C)CC)n3cc(C(N)Cc4ccc(O)cc4)nn3)CC2)nc(N2CCN(C(=O)[C@H](CCC(=O)O)n3cc(C(N)Cc4ccc(O)cc4)nn3)CC2)n1 (some centres not stated)
-8%,-4,2%,3,-3.0,.,CC1=NN(C(C#N)c2ccccc2)C(C)(C)C1 (configuration not stated)
8%,-11,.,0,-7.6,-3,CC[C@H](C)[C@H]1CNC(=O)C(=O)N1CC1CCN(CCCc2ccc(OC)c(OC)c2)CC1
-7%,-10,13%,?,0.7,?,O=C(N/N=C/c1ccccn1)c1ccco1
4%,-17,7%[15.4 µM],2,-6.0,-18,Cc1cc(C)c(C)c(S(=O)(=O)N[C@@H](C)C(=O)OCC(N)=O)c1C
5%,-1,11%,1,2.5,2,CC(C)CN(C(=O)C1=NN(c2ccccc2)C(=O)CC1)c1c(N)n(Cc2ccccc2)c(=O)[nH]c1=O
6%,-3,-3%,7,-2.0,-12,O=C(COc1ccc(/C=N/NC(=O)c2ccncc2)cc1)Nc1ccc([N+](=O)[O-])cc1
-18%,-4,-10%,-7,-3.5,-7,CC(C)Cn1c2c(c(O)c(C(=O)Nc3ncccc3O)c1=O)CCCC2
-13%,-37,-3%,-13,-1.4,-13,Cc1ccsc1/C=N/NC(=O)c1c[nH]c2ccccc12
4%,-7,-2%,2,1.8,-5,Cc1cc(Cl)ccc1C(=O)C1CCCN(C(=O)CCn2cncn2)C1 (configuration not stated)
-9%,-10,.,1,-4.4,-20,CCO[C@@H]1OC(C(=O)N2CCCCCCC2)=C[C@H](c2cn(C(C)=O)c3ccccc23)[C@H]1CCCO
-3%,-1,30%,-3,-2.2,3,CS(=O)(=O)N1CCN(c2ccccc2NC(=O)c2cccnc2)CC1
7%,3,8%,3,3.1,-6,Cc1nc(C(=O)N2CCc3c([nH]c4ccccc34)C2c2cc(F)ccc2F)cs1 (configuration not stated)
13%,-19,-26%,3,0.8,3,COc1ccccc1S(=O)(=O)Cc1ccc(C(=O)NCCN2CCCC2)o1
-12%,9,7%,0,2.2,-2,O=C(C1CCN(c2ccc(N3CCOCC3)nn2)CC1)N1CCN(c2ccc(F)cc2)CC1
-12%,-7,-28%,-20,15,-11,CC(C)=NNc1nc2c(c(=O)[nH]c(=O)n2C)n1CCCc1ccccc1
-6%,-6,10%,-5,0.7,-10,COc1cccc(OCCOc2ccc(/C=C3\C(=N)N4N=C(S(C)(=O)=O)SC4=NC3=O)cc2OC)c1
.,-7,.,3,-3.7,-3,CCc1nc2c(OCCn3cccc3)cccn2c1N(C)C(=O)c1ccc(C)cc1
8%,-4,-6%[15.4 µM],0,-1.2,7,CC(=O)Nc1ccc(S(=O)(=O)N2CCN(C(=O)N3CCCC3)CC2)cc1
4%,-4,-17%,2,-3.8,0,C1CC1C(=NN=C(C1CC1)C1CC1)C1CC1
9%,-13,-26%,4,-2.0,4,O=C(O)Cn1c(=O)cnc2ccccc21
-5%,-3,26%,-4,-3.2,6,Cc1cccc(C(=O)Nc2c(C#N)c(C)c(C)n2Cc2ccccc2)c1
22%,-30,-26%,-1,-3.6,4,Cc1oc(-c2ccc(Cl)cc2)nc1CN1CCCC(C(=O)NC2CC2)C1 (configuration not stated)
-1%,-3,17%,0,13,-1,COc1ccccc1NS(=O)(=O)c1ccc(C(=O)Nc2ncccc2O)cc1
-1%,-6,-1%[15.4 µM],-16,-1.5,12,CCN1CCN(CC(=O)Nc2ccc(N(C)C)cc2)CC1
-10%,-47,7%,-10,0.9,3,COc1ccccc1NC(=O)c1c(Nc2ccccc2F)sc(C(=O)Nc2cccc(Cl)c2)c1N
-3%,9,.,2,7.7,0,C[C@H](NC(=O)c1nc[nH]c1C(=O)NCC(=O)OCc1ccccc1)C(=O)OC(C)(C)C
0%,-7,-39%[inhibitor],8,-1.9,-3,COc1ccc(-c2nnc(NC(=O)c3ccco3)s2)cc1
-5%,-19,-23%,0,-2.2,0,COc1ccc(NC(=O)C2CCCN(S(=O)(=O)c3cccnc3)C2)cc1 (configuration not stated)
-15%,9,2%[15.4 µM],?,-0.8,-16,COc1ccc(-c2cc(C(=O)NNC(=O)c3csc(N4CCOCC4)n3)c3ccccc3n2)cc1OC
5%,-8,0%,-1,-1.8,.,CCNc1nc(NC(C)(C)C)nc(Oc2ccc(=O)n(-c3ccccc3)n2)n1
